From PubChem BioAssay
Choline anaer gr – growth inhibitors of anaerobic choline-fed gram-negatives, minimal medium, absorbance | 55,000 tested, 0.2% active | Gram-negative bacterium anaerobic choline minimal medium; active compounds read low; many inactives read as strong as hits in the columns shown | calls only | AID 1963822, 2024;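 active means growth z-score on choline under -2 at 7 or 20 h with little or no fall on glycerol, limits in tiers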;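 further: stock transfer was 300 nL into about 50 µL; the organism is E. coli; final concentration not given here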
Choline anaer gr early – recorded beside Choline anaer gr, whose call it bears; z-score; measured here: choline growth z-score, timepoint 1;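 score of optical density at 7 h as mean of two plates; lower means less growth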
Active calls of the source: *; i = inactive; & = joins results of further samples. An excerpt (hit frequency here may not be typical).

structure	Choline anaer gr early	Choline anaer gr
C=CCn1c(SCC(=O)Nc2cc(C)ccc2C)nc2sc3c(c2c1=O)CCC3	0.64	i
O=C(NCc1cccnc1)c1ccc(CN2CC(=O)N3CCCCC3C2=O)cc1 (stereo unspecified)	0.78	i
CNC(=O)Oc1ccc2c(c1)[C@]1(C)CCN(C)C1N2C (stereo partly specified)	0.54	i
Cn1cc(-c2cc3n(n2)CCC(=O)N3CC(=O)N2CCN(c3ccccc3)CC2)c2ccccc21	0.15	i
Cc1ccc2nc(C(=O)O)cc(Nc3ccc(C)c(C)c3)c2c1	0.91	i
CCOc1ccccc1-c1noc(CSc2nc3cc(-c4ccccc4)sc3c(=O)n2C)n1	-0.66	i
Cc1ccc(NC(=O)N2CCCC2c2c(C)noc2C)cc1Cl (stereo unspecified)	0.27	i
CC(C)(C)C1CCc2[nH]nc(C(=O)NC3CC3)c2C1 (stereo unspecified)	-0.05	i
CCCCN(CC)C(=O)C(CC)N1C(=O)CCCc2ccccc21 (stereo unspecified)	0.25	i
CCCS(=O)(=O)Nc1ccc(Nc2nc(C)cc(N(C)C)n2)cc1	-0.19	i
O=C(NCCC1=CCCCC1)c1cn(-c2ccccc2)cn1	1.06	i
Cc1ccc(Cl)cc1NC(=O)C(C)n1nc(-c2ccccc2)c2c(c1=O)CCCC2 (stereo unspecified)	-1.8	i
COc1cccc2c1C(=O)c1c(O)c3c(c(O)c1C2=O)C[C@@](O)(C(=O)CO)CC3O[C@H]1CC(N)C(O)C(C)O1 (stereo partly specified)	-2.4	i
COc1cc(CNCc2ccc(F)cc2)ccc1OCc1ccc2c(c1)n(C)c(=O)n2C	-1.28	i
Cc1ccc(C(=O)Nc2cccc(-n3c(C)nc4ncccc4c3=O)c2)cc1C	-0.31	i
NC(=O)c1ccc2c(c1)CCCN2C(=O)c1ccc(F)cc1	0.42	i
CC1CC(=O)Nc2ccccc2N1C(=O)C1CC1 (stereo unspecified)	0.16	i
CC1CCN(S(=O)(=O)c2ccc3c(ccn3CCC(=O)NCCCN3CCCCC3)c2)CC1	-0.79	i
CCC(C)NC(=O)c1cccc(NC(=O)c2nnc(COc3ccccc3)s2)c1 (stereo unspecified)	-0.86	i
Cc1nn(CC(=O)NCc2cccc(Cl)c2)c(=O)c2nn(-c3ccccc3)c(C)c12	0.95	i
COc1ccc(Cl)cc1NC(=O)CSc1nnc(C(C)N2C(=O)COc3ccccc32)n1C (stereo unspecified)	-0.53	i
C=CCn1c(SCc2cccc(F)c2)nc2c(-c3ccccc3)cn(C)c2c1=O	-0.07	i
CCC(=O)[C@@]1(C)[C@H](C)C[C@H]2[C@@H]3CCC4=CC(=O)C=C[C@]4(C)[C@H]3[C@@H](O)C[C@@]21C	0.56	i
CCN1CCCC1CNC(=O)C1CCN(Cc2nc(-c3ccc(OC)c(OC)c3)no2)CC1 (stereo unspecified)	-0.23	i
O=C(Nc1ccc2c(c1)OCCO2)c1cccc(Nc2ccc(-c3cccc(F)c3)nn2)c1	0.38	i
CCOC(=O)c1c(NC(=O)Cn2c(-n3nc(C)cc3C)nc(C)c(C)c2=O)sc2c1CCCC2	0.49	i
CC(c1nc2ccccc2n1CCOc1ccccc1)N1CCCCC1 (stereo unspecified)	-0.44	i
Cc1c(C(=O)NC2CCCCC2)sc2nc3ccc(N)cc3n12	0.28	i
COc1ccc(-c2nc3c(s2)CN(S(=O)(=O)c2ccccc2)CC3)cc1	0.68	i
CC(C)NC(=O)CN1C(=O)C2CCCC2=Nc2ccccc21 (stereo unspecified)	0.01	i
Cn1c(=O)n(C)c2cc(N3CCCC3)c(NC(=O)NC3CCCC3)cc21	-0.8	i
CCOc1ccc(-c2n[nH]c3c2cnc2cc4c(cc23)OCCO4)cc1	0.21	i
CCCNC(=O)c1[nH]c2cc(C)ccc2c1Sc1ccc(Cl)cc1	1.68	i
CCOCCOC(=O)c1ccc2c(c1)N(CC(=O)Nc1cccc(F)c1)C(=O)c1ccccc1S2	0.02	i
CCCc1ccc(S(=O)(=O)N2CCC(N3CCN(Cc4ccc(F)cc4)C(=O)C3=O)CC2)cc1	0.1	i
Cc1ccc2scc(N3CCOCC3)c(=O)c2c1	-1.49	i
Cc1[nH]c(C(=O)Nc2ccccc2)c(C)c1S(=O)(=O)N1CCCCC1	0.25	i
CCCNC(=O)C(C)C1CCN(S(=O)(=O)c2cccs2)CC1 (stereo unspecified)	0.08	i
O=C(NCc1ccccc1F)c1ccc(N2C(=O)CCS2(=O)=O)cc1	-0.26	i
CCC(=O)c1c(O)cc(O)cc1O	-0.47	i

Part of the list above in another layout.
O=C(Nc1ccc2c(c1)OCCO2)c1cccc(Nc2ccc(-c3cccc(F)c3)nn2)c1
  Choline anaer gr early = 0.38 | Choline anaer gr = i

O=C(NCc1ccccc1F)c1ccc(N2C(=O)CCS2(=O)=O)cc1
  Choline anaer gr early = -0.26 | Choline anaer gr = i

COc1ccc(-c2nc3c(s2)CN(S(=O)(=O)c2ccccc2)CC3)cc1
  Choline anaer gr early = 0.68 | Choline anaer gr = i

Profiles as entered above:
NC(=O)c1ccc2c(c1)CCCN2C(=O)c1ccc(F)cc1 across the screens: Choline anaer gr early: 0.42; Choline anaer gr: i
CCC(=O)c1c(O)cc(O)cc1O across the screens: Choline anaer gr early: -0.47; Choline anaer gr: i
CCOc1ccccc1-c1noc(CSc2nc3cc(-c4ccccc4)sc3c(=O)n2C)n1 across the screens: Choline anaer gr early: -0.66; Choline anaer gr: i

Some values from the results shown:
Choline anaer gr early with O=C(Nc1ccc2c(c1)OCCO2)c1cccc(Nc2ccc(-c3cccc(F)c3)nn2)c1 stands at 0.38
Choline anaer gr early with CC(c1nc2ccccc2n1CCOc1ccccc1)N1CCCCC1 (stereo unspecified) stands at -0.44
Choline anaer gr early with COc1ccc(Cl)cc1NC(=O)CSc1nnc(C(C)N2C(=O)COc3ccccc32)n1C (stereo unspecified) stands at -0.53

(list continues)
structure	Choline anaer gr early	Choline anaer gr
CC(C)c1cc(C2CCCN2C(=O)c2c(Cl)cnn2C)on1 (stereo unspecified)	0.33	i
COc1ccc(NS(=O)(=O)c2cc(-c3nc(-c4ccccc4)no3)sc2C)cc1	0.61	i
Cc1nc2n(c(=O)c1CCN1CCC(c3noc4cc(F)ccc34)CC1)CCCC2O (stereo unspecified)	-0.03	i
CC(=O)OCC1=C(C(=O)O)N2C(=O)[C@@H](NC(=O)Cc3cccs3)[C@H]2SC1	-2.59&-2.88	i
Cc1ccc(NC(=O)NCCCn2c(-c3ccncc3)nc3cccnc32)cc1C	-2.45	i
COc1ccc(OC)c(NC(=O)NC2COc3ccccc3C2)c1 (stereo unspecified)	-0.51	i
Cc1cccc(-c2nccc(N3CCC(C(=O)NC4CCCc5ccccc54)CC3)n2)c1 (stereo unspecified)	-0.29	i
O=c1ccc(-c2ccc(F)cc2)nn1CCc1nc(-c2ccccc2Cl)no1	-0.04	i
CCCn1c(=O)c2cc(Cl)ccc2n2c(=S)[nH]nc12	-0.16	i
CN(CCc1noc(-c2ccc(C(=O)NCc3ccccc3)cc2)n1)C(=O)c1ccc(Cl)cc1	0.73	i
COc1ccc(C(CNC(=O)c2cccc(OC)c2)N2CCCCC2)cc1 (stereo unspecified)	0.78	i
CN(C)C(=O)c1nc(-c2ccsc2)nc2c1OCO2	0.04	i
O=C1CC(N2CCC(Cc3ccccc3)CC2)C(=O)N1c1cccc(Cl)c1 (stereo unspecified)	-0.54	i
Cc1ccc(S(=O)(=O)Nc2nc3n(n2)C(c2ccc(Cl)cc2)C=C(c2ccc(Cl)cc2)N3)cc1 (stereo unspecified)	2.31	i
Cc1c(-c2nn3c(Cc4ccccc4)nnc3s2)nnn1-c1ccccc1	-0.35	i
COc1ccc(NS(=O)(=O)c2ccc3oc(=O)c4ncn(C)c4c3c2)cc1	0.55	i
CCNC(=O)c1cc2cc3ccc(OC)c(Cl)c3nc2s1	-0.44	i
CC(C)c1nc(-c2ccc(C(=O)NCc3noc(COc4ccccc4)n3)cc2)no1	-1.38	i
O=C(CN1C(=O)C2CCCCN2c2ccc(C(=O)N3CCCC3)cc21)NC1CCCCC1 (stereo unspecified)	0.71	i
O=C(Nc1cccc(Br)c1)C1Oc2ccccc2NC1=O (stereo unspecified)	1.15	i
Cc1cc(C)c(S(=O)(=O)Nc2cnc(N3CCNCC3)c(C(=O)NC3CCCC3)c2)c(C)c1	0.11	i
COc1ccc(OC)c(NC(=O)CCc2c(C)nn(-c3ccc4nncn4n3)c2C)c1	-0.54	i
Cc1cc(NC(=O)CC2CCCCC2)n(-c2ncnc3c2cnn3-c2ccc(Cl)cc2)n1	-0.99	i
NC(=O)c1c(NC(=O)c2csc3c2CCCC3)sc2c1CCCC2	0.97	i
N=S(=O)(O)Cc1noc2ccccc12	0.82	i
Cc1nc(-n2[nH]c(C)c(CC(=O)N3CCCCC3)c2=O)sc1C	-0.19	i
CCCNC(=O)Cn1cnc2c(sc3nc(C)cc(C)c32)c1=O	0.61	i
CC1CC2C3CCC4=CC(=O)C=C[C@]4(C)[C@@]3(F)[C@@H](O)C[C@]2(C)[C@@]1(O)C(=O)CO (stereo partly specified)	-0.13	i
CCOc1ccc(-n2nnc3c(N4CCN(C(=O)COC)CC4)ncnc32)cc1	0.39	i
Cc1nnc(-c2ccc(S(=O)(=O)N3CCCCC3)o2)o1	0.65	i
COc1ccc(CNC(=O)CN2C(=O)CSc3sc(S(=O)(=O)N4CCCC4)cc32)cc1	-1.31	i
Cc1ccccc1NC(=O)Nc1ccc(SCc2cc(=O)n3c(ncn3C(C)C)n2)cc1	0.2	i
Cc1nc(OCC(F)(F)F)c2c3c(sc2n1)CCCC3	-0.33	i
O=C(NCCCN1CCOCC1)c1cc2ccccc2[nH]1	-0.21	i
COc1ccccc1CNc1ccc2nnc(CCNC(=O)c3ccccc3F)n2n1	-0.09	i
COc1cccc(-c2nn(Cc3nc(-c4ccccc4)oc3C)c(=O)c3noc(C)c23)c1	1.56	i
N=C(N)SCCc1cnc[nH]1	0.76&-0.31	i
COC(=O)c1c[nH]n2c(=O)cc(CS(=O)(=O)c3ccc(C)cc3C)nc12	-0.39	i
O=C(CN1c2ccc(F)cc2-c2ccccc2S1(=O)=O)NCCC1=CCCCC1	1.12	i
CC(=O)Nc1cccc(C(=O)NC(=NCc2ccncc2)Nc2cccc(C(C)C)c2)c1	-0.64	i
O=C(NC1CCCC1)c1ccccc1-c1nc(-c2ccccc2)no1	-1.01	i
CC(C)C1Nc2ccccc2S(=O)(=O)N1 (stereo unspecified)	0.4	i
Cc1cc(N2CCOCC2)nc(N2CCN(C(=O)c3ccc(Br)cc3)CC2)n1	0.65	i
Cn1cc(S(=O)(=O)c2ccccc2)c(=O)c2cc(F)c(N3CCN(c4ccc(F)cc4)CC3)cc21	0.15	i
COc1cc(C2C3=C(CC(c4ccc(O)cc4)CC3=O)Nc3onc(C)c32)ccc1O (stereo unspecified)	-0.05	i
C=C(C)Cn1c(=O)n(Cc2ccccc2)c(=O)c2cc3c(nc21)CC(C)(C)OC3	0.95	i
CC(C)C(=O)Nc1ccc2nc(SCC(=O)N3CCCC3)sc2c1	-0.38	i
N#CCSc1nnc2sc3ccccc3n12	-0.56	i
C=COCC(F)(F)F	0.33	i
CCn1c(Cn2cccn2)nc2cc(NC(C)=O)ccc21	1.17	i
O=C(NCCn1c(CCc2ccccc2)nc2cccnc21)C1CCCC1	-0.01	i
Cn1nc(COCc2ccccc2)c2c1CCN(S(=O)(=O)c1ccc(Br)cc1)C2	0.78	i
O=c1ccc(-c2ccccc2)nn1CCc1nc(-c2ccc(Br)cc2)no1	0.09	i
Cc1ccc(Cc2nnc(-c3ccc(NC(=O)Nc4ccc(Cl)cc4)cc3)o2)cc1	0.61	i
CCCCCn1c(=O)c2sccc2n2c(CCC(=O)NCCC3=CCCCC3)nnc12	1.02	i
O=C(Cn1c(-c2ccc(F)cc2)nc2c(c1=O)CCN(Cc1ccccc1)C2)NCCC1=CCCCC1	0.23	i
COc1cccc2c(=O)c(NC(=O)N3CCC(C(N)=O)CC3)c[nH]c12	-0.48	i
CCn1c(C)c(C2=CCN(S(=O)(=O)c3ccccc3)CC2)c2ccccc21	1.41	i
O=C(c1cnc2cc(-c3ccc(Cl)cc3)nn2c1)c1ccccc1O	1.01	i
Cc1nc(C2=C(O)CN(CCCN3CCCC3=O)C2=N)sc1C	0.14	i

Following part.
structure	Choline anaer gr early	Choline anaer gr
Cc1ccc(OCC(=O)Nc2cc3c(cc2SC(C)C)n(C)c(=O)n3C)cc1	-0.48	i
COc1ccc(-n2c(C)cc(CN)c2C)cc1	-3.32	i
Cc1nn(CC(=O)N2CCc3ccccc32)c(C)c1S(=O)(=O)N1CCCC(C(=O)Nc2nccs2)C1 (stereo unspecified)	-0.58	i
CC1CCN(c2ccc(-c3noc(CN4C(=O)COc5ccccc54)n3)cc2)CC1	0.7	i
O=C(COc1ncnc2onc(-c3ccccc3)c12)NCc1ccccn1	-1.18	i
O=C(Nc1ccc(N2CCC(N3CCCCC3)CC2)cc1C(=O)O)c1ccccc1Cl	-0.71	i
CCc1nc(-c2csc(S(=O)(=O)N3CCCC(C(=O)NC4CCCCC4)C3)c2)no1 (stereo unspecified)	0.78	i
Nc1ccn([C@@H]2CS[C@H](CO)O2)c(=O)n1	0.69	i
COc1ccc(S(=O)(=O)N2CCC[C@@H]2C(=O)NCc2csc(C)n2)cc1OC	-0.55	i
COCCCNC(=O)CSc1nc(-c2ccc(C(C)C)cc2)no1	-2	i
Cc1ccccc1CCN1C(=O)c2oc3ccccc3c2OCC1(C)C(=O)NC1CCCC1 (stereo unspecified)	0.44	i
